# Rango complex inh: qHTS Assay for Inhibitors of Rango (Ran-regulated importin-beta cargo) - Importin beta complex formation | Rango CFP/YFP FRET sensor + importin beta, 45 min | Potency, µM (series often up to 92.2 µM), for inactives: at the top dose inhibition of complex formation | 340,000 tested, 0.031% active; active = rising FRET ratio curve, often small or poorly fitted; inconclusive = mostly compound fluorescence or quenching in the first reads; inactive = flat curves in all reads;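 also: potency is read from the fitted curve at half-maximal effect; 0% = DMSO wells and 100% = buffer wells lacking importin beta; nearly all actives have a fitted effect of over 15% in size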
#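 Inhibition scored from the CFP 486 nm/YFP 530 nm FRET ratio 45 min after adding 0.125 microM importin beta to 50 nM Rango biosensor preincubated 5 min with compound (room temperature, PBS with DTT, Tween-20, BSA). No-importin wells as positive control.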
# Rango release inh: qHTS Assay for Inhibitors of RanGTP induced Rango (Ran-regulated importin-beta cargo) - Importin beta complex dissociation. Snurportin-1 (Homo sapiens) + GTP-binding nuclear protein Ran (Homo sapiens) + Importin …. Biochemical FRET Rango-importin beta, RanGTP-induced dissociation. Potency, µM (top dose mostly 46.1 µM), for inactives: at the top dose activity change, negative = inhibition. 340,000 tested, 0.071% active; active means falling FRET ratio curve, often poorly fitted, with flat reads before Ran was added; inconclusive means other falling curves, or compound fluorescence or quenching; inactive means flat or rising ratio curve;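 also: potency is read from the fitted curve at half-maximal effect; % of control where 0% means no effect; nearly all actives have a fitted effect of over 45% in size; -100% = wells without RanGTP and RCC1; the record marks most hits as doubtful in a second field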
#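 Recombinant Rango FRET biosensor (EYFP–snurportin 1 IBB–cerulean CFP10) at 0.1 uM premixed with 0.25 uM importin beta in PBS, 1 mM DTT, 0.02% Tween-20, 0.1% BSA. Compound added 5 min; RanGTP-RCC1 (0.6 uM Ran, 2 mM GTP, 0.2 uM RCC1) then triggers release, read at 45 min.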
# miR-21 FLuc: qHTS Assay for Modulators of miRNAs and/orActivators of miR-21; 340,000 tested, under 10 active; HeLa miR-21 FLuc reporter, luciferase, 48 h; AID 2288, 2010; Potency, µM (doses to about 38.3 µM), for the others: at the highest dose reporter change, positive = more light; active = well fitted rising curve with a large enough effect; inconclusive = small, poorly fitted or top-dose-only effect; inactive = no such curve, though single readings can be large or run the other way;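 also: % of control where 0% means no effect; miR-21 action dims this reporter so a rising signal means less miR-21 action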
#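 HeLa miR-21-FLuc reporter line, endogenous miR-21; 2000 cells/well in DMEM/10% FBS; compound titration up to ~40uM final, 48 h, 37 degree Celsius; luciferase detection reagent, 15 min lysis, CCD luminescence.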
# GLA inh pH 4.5: qHTS Assay for Inhibitors of Human alpha-Galactosidase at pH 4.5; Alpha-galactosidase A (Homo sapiens), P06280; 230,000 tested, under 10 active; purified enzyme, 4-MU-alpha-Gal fluorescence, pH 4.5; activity change, negative = inhibition, % at 105 µM; AID 1467, 2008; inconclusive = small, poorly fitted or top-dose-only inhibition, or a rising curve; inactive = flat fitted curve, though single readings scatter; no compound was filed as active;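 also: 0% = full activity with enzyme and -100% = basal without enzyme; dose as in the result columns while the protocol names 77 µM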
# Target sequence (P06280 whole entry, looked up): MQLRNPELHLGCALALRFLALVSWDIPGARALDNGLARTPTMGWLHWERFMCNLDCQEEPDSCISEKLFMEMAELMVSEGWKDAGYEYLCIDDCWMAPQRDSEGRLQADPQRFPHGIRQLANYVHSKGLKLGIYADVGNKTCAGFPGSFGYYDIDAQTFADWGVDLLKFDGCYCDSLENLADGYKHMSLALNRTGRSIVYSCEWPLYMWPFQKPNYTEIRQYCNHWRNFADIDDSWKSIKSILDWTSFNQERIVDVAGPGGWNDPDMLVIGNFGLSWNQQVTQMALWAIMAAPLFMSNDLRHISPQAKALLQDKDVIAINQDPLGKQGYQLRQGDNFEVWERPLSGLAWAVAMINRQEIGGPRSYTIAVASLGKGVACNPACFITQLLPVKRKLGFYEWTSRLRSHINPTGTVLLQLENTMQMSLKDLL
# An asterisk follows results filed as active; u = inconclusive; x = no result given; & = joins results of further samples. The list is partial, so the mix of outcomes need not match the whole.
# The opening two compounds, ahead of the listing:
SMILES,Rango complex inh,Rango release inh,miR-21 FLuc,GLA inh pH 4.5
COc1ccc(Br)cc1/C=N/NC(=O)CNC(=O)c1cccnc1,u,6%,12%,9
NS(=O)(=O)c1ccc(CCNC(=O)CN2C(=O)COc3ccc(S(=O)(=O)N4CCCC4)cc32)cc1,-3.5%,-24%,0%,x

# This part in full, from the start:
SMILES,Rango complex inh,Rango release inh,miR-21 FLuc,GLA inh pH 4.5
COc1ccc(Br)cc1/C=N/NC(=O)CNC(=O)c1cccnc1,u,6%,12%,9
NS(=O)(=O)c1ccc(CCNC(=O)CN2C(=O)COc3ccc(S(=O)(=O)N4CCCC4)cc32)cc1,-3.5%,-24%,0%,x
Cc1ccc(N2C(=O)CC(c3ccsc3)C3=C2CC(C)(C)CC3=O)cc1 (stereo unspecified),-0.2%,18%,-4%,5
COc1ccc(CNC(=O)c2noc3c2CCCCC3)cc1,-1.0%,0%,-54%,3
CNc1c(NC(=O)C2CCC(C)CC2)c(=O)oc2ccccc12 (stereo unspecified),-0.1%,12%,-1%,x
Cc1ccc(N2CCN(S(=O)(=O)c3ccc4c(c3)oc(=O)n4C)CC2C)cc1 (stereo unspecified),-2.2%,10%,0%,x
COc1ccc(COC(=O)CCc2c[nH]c3ccccc23)cc1F,0.0%,0%,x,x
CC1=C(C(N)=O)C(c2ccc(Br)cc2)n2ncnc2N1 (stereo unspecified),0.9%,8%,-7%,x
CCCCCCCCN1C(=O)C(O)=C(C(C)=O)C1c1ccccn1 (stereo unspecified),-2.7%,-10%,-11%,-3
Cc1cccc(NC(=S)Nc2ccc3cn[nH]c3c2)c1,-3.0%,-12%,-15%,-3
O=C(c1ccccc1)C1CCN(C(=O)Nc2ccccc2)CC1,0.1%,7%,-25%,-8
Cc1ccc(N(CC(=O)N2CCCCCC2)S(C)(=O)=O)cc1Cl,2.2%,-2%,-4%,x
CCN(CC)C1=C(Cl)C(=O)C(Cl)C12OCCO2 (stereo unspecified),-0.5%,1%,3%,-5
CCn1c(=O)n(CC(=O)N2CCN(c3ccccc3F)CC2)c(=O)c2ccccc21,-0.5%,0%,-1%,1
COc1cc(/C=C2\SC(=S)N(N(C)c3ccccc3)C2=O)ccc1O,5.0%,4%,5%,-15
COc1ccc(/C(O)=C2/C(=O)C(=O)N(CCN(C)C)C2c2ccc(OC)c(OC)c2)c(C)c1 (stereo unspecified),-4.8%,1%,-4%,-3
CCOc1ccc2nc(NC(NC(=O)CC)(C(=O)OC)C(F)(F)F)sc2c1 (stereo unspecified),-2.9%,-20%,-7%,-3
COc1cc(OC)c(NC(=O)CCc2nc(-c3cccs3)no2)cc1Cl,-0.2%,-12%,0%,-11
CN1C(=O)Cc2cc(S(=O)(=O)Nc3ccc(Cl)cc3)ccc21,5.9%,17%,-3%,x
O=C1CC(=O)N(CCNc2ncc(C(F)(F)F)cc2Cl)C(=O)N1,-4.4%,-12%,-1%,-18
COc1cccc(C(=O)NN2c3ccccc3CCc3ccccc32)c1,4.3%,5%,-17%,-5
COc1ccc(S(=O)(=O)N2CCCCCC2)cc1C(=O)N(C)CC(=O)Nc1ccc(Cl)c(Cl)c1,-2.5%,1%,x,x
CCOCc1c(C(=O)OCC(=O)Nc2ccccc2C(N)=O)oc2ccccc12,-3.4%,-8%,x,x
CCN(CC(=O)NCc1ccc(F)cc1)C(=O)Cc1ccc(OC)cc1,0.7%,5%,1%,x
CC(=O)c1ccc(NC(=O)c2ccc(-n3cncn3)c([N+](=O)[O-])c2)cc1,0.0%,-2%,0%,x
O=C(NCc1ccc2c(c1)OCO2)Nc1ccc2nsnc2c1,-3.0%,-6%,-28%,5
O=C(Nc1cccc(C(=O)O)c1)/C(=C\c1ccccc1Cl)NC(=O)c1ccco1,0.1%,-3%,-4%,x
O=C(N/N=C/c1ccccn1)c1ccc(N/N=C/c2ccccn2)cc1,-0.1%,11%,-10%,-6
COc1ccc(CNC(=O)Cc2cccs2)cc1,-3.4%,-15%,-42%,x
CCOC(=O)c1cnc(-n2nc(C)cc2C)nc1NCc1ccc2c(c1)OCO2,-0.2%,2%,2%,2
Nc1c(Br)c(=O)[nH]c(=O)n1-c1ccccc1,-1.2%,15%,1%,x
O=C1CC(NS(=O)(=O)c2ccccc2F)CN1c1ccc2c(c1)OCCO2 (stereo unspecified),-1.2%,-7%,x,x
N#CC1=C(S)N(c2ccc(F)cc2)C2(CCCCC2)NC1=O,3.5%,1%,3%,12
COc1ccccc1NS(=O)(=O)c1c(C)[nH]c(C)c1C(=O)N1CCCC1,0.5%,-11%,-1%,x
c1ccc(Oc2cc(-c3ccccc3)nc(-c3ccccc3)n2)cc1,6.8%,29%,-5%,3
Cc1c(CCOC(=O)C2C3CC4CC(C3)CC2C4)sc[n+]1CC(=O)c1ccc(Br)cc1 (stereo unspecified),-2.8%&1.7%,-10%&-17%,24%,-2
Cc1cc(C)nc(SCc2nnc(SCC(=O)O)n2-c2ccccc2)n1,-5.0%,11%,2%,1
NS(=O)(=O)c1ccc(N2N=C(c3ccc(Br)cc3)CC2c2ccc(F)cc2)cc1 (stereo unspecified),u,u,u,u
O=C(NCc1ccccn1)C(=O)C1C(=O)Nc2ccccc21 (stereo unspecified),-1.2%,-9%,-2%,2
[O-]/C(=C(\C(=S)Nc1ccccc1F)[n+]1ccccc1)c1ccc(OC(F)F)cc1,3.4%,u,-3%,1

# 4 compounds already listed, ordered by the value under Rango release inh, largest number first.
SMILES,Rango complex inh,Rango release inh,miR-21 FLuc,GLA inh pH 4.5
Nc1c(Br)c(=O)[nH]c(=O)n1-c1ccccc1,-1.2%,15%,1%,x
CCN(CC(=O)NCc1ccc(F)cc1)C(=O)Cc1ccc(OC)cc1,0.7%,5%,1%,x
O=C(NCc1ccc2c(c1)OCO2)Nc1ccc2nsnc2c1,-3.0%,-6%,-28%,5
COc1ccc(CNC(=O)Cc2cccs2)cc1,-3.4%,-15%,-42%,x

# (more compounds)
SMILES,Rango complex inh,Rango release inh,miR-21 FLuc,GLA inh pH 4.5
Cc1cccc(-n2c(O)c(C=Nc3cc(O)ccc3C)c3ccccc3c2=O)n1,u,u,-7%,-1
O=C(Nc1ccc(N2CCN(Cc3ccccc3)CC2)cc1)c1ccco1,0.5%,10%,-28%,x
O=C(COc1ncnc2sccc12)NC1CCS(=O)(=O)C1 (stereo unspecified),u,-18%,-8%,0
O=C(CC12CC3CC(CC(C3)C1)C2)NCc1ccco1,2.0%,12%,-11%,-11
CCN(CC)CCNC(=O)C(=O)NCC1OCCN1C(=O)c1ccc2c(c1)OCO2 (stereo unspecified),x,x,-4%,-10
CC(NC(=O)C1CCCN1C(=O)OCc1ccccc1)c1ccccc1 (stereo unspecified),2.1%,-10%,-4%,-5
O=C(COc1cccc(Br)c1)NN=C1c2ccccc2-c2ccccc21,-3.1%,-9%,-7%,-1
CC1(C)CC(=O)C2=C(C1)NC1=C(C(=O)c3ccccc31)C2c1cccnc1 (stereo unspecified),-1.8%,-17%,-7%,-18
COc1ccccc1NNC(=O)C(O)(c1ccccc1)c1ccccc1,-0.8%,-13%,-3%,-1
Cc1ccc(N/C=C2\C(=O)C3(C)CCC2C3(C)C)cc1C (stereo unspecified),-3.3%,13%,-12%,-1
Cc1ccc(C(=O)N/N=C/c2cc(C)n(-c3ccc(Br)cc3)c2C)cc1[N+](=O)[O-],-5.9%,10%,0%,15
O=C(C(=O)N1CCCCC1)c1c(-c2ccccc2)[nH]c2ccccc12,1.4%,-14%,-4%,x
Cc1ccc(OCCOc2cccc3ccc(C)nc23)c([N+](=O)[O-])c1,-1.7%,-1%,-21%,-6
O=C(CN1C(=O)/C(=C/c2c(F)cccc2Cl)Oc2ccccc21)NCc1ccco1,x,x,-1%,8
CCOC(=O)C1=C(CC)Nc2ccccc2N=C1NC(=O)c1ccc(OC)c(S(=O)(=O)N2CCOCC2)c1,-1.9%,14%,x,x
NCCCCCc1cn([C@@H](CCC(=O)O)C(=O)NCCCCCCCCCCC(=O)N2CCNCC2)nn1,3.5%,-1%,x,x
CCCc1cc(C(=O)N2CCCC(Cc3cccc(Cl)c3)(C(=O)OCC)C2)n(C)n1 (stereo unspecified),0.3%,-2%,-7%,x
CCCOc1ccc(N2C(=O)CC(N(Cc3ccco3)C(=O)CCC(=O)O)C2=O)cc1 (stereo unspecified),0.6%,15%,-2%,9
O=C(CN1CCOCC1)N1CCCc2c1c(=O)oc1ccc(OCc3ccccc3)cc21,-3.9%,0%,6%,3
O=C(NCCc1ccccc1)C(=O)NCC1CCCO1 (stereo unspecified),0.3%,-12%,-24%,5
Cc1cccc(C(=O)Nc2ccc(O)c3c(=O)cc(-c4ccccc4Cl)oc23)c1,1.6%,-7%,-10%,5
CCOC(=O)C1=C(COC(=O)c2c(OC)cccc2OC)NC(=O)NC1C (stereo unspecified),-0.5%,2%,x,x
Cc1cc(C)cc(C(=O)NC(=S)Nc2ccc3[nH]c(=O)[nH]c3c2)c1,1.0%,10%,-5%,5
CC1=CSC2=NC(=O)/C(=C\c3cccn3-c3ccccc3)C(=N)N12,u,-28%,7%,1
CCC(=O)NC1CCN(C(=S)NC)CC1,-3.1%,6%,-1%,1
CCN(CC(=O)NCc1cccs1)C(=O)c1cc(S(=O)(=O)NCc2ccccc2)ccc1C,0.0%,-12%,x,x
Cc1cccc(C)c1NC(=O)COC(=O)CCc1c[nH]c2ccccc12,0.1%,-1%,x,x
CCS(=O)(=O)N1CCN(Cc2nc3ccccc3c(=O)[nH]2)CC1,-5.4%,17%,1%,1
CCOc1ccc(-c2c(C(=O)N/N=C/c3cccc(Br)c3)nnn2-c2nonc2N)cc1,0.8%,-20%,-5%,x
Cc1c(CC(=O)O)c(=O)oc2c(C)c(OCc3ccccc3Br)ccc12,u,-15%,0%,x
O=C(CSc1nnc(-c2ccccc2)o1)Nn1cnnc1,-3.7%,1%,1%,-3
COc1ccc(-n2nc(C(=O)NCC(=O)N(C)Cc3ccccc3)c3ccccc3c2=O)cc1,2.2%,-14%,9%,x
CCOC(=O)/C(C#N)=C\C1=C(N2CCCC2)CC(C)(C)OC1,-5.1%,-13%,-3%,-5
O=C(O)CC/C(=N\Nc1ccccc1[N+](=O)[O-])c1cccs1,4.5%,1%,-35%,x
COc1ccccc1C(=O)Nc1ccc(NC(=O)C2CCCCC2)nc1,0.0%,18%,4%,x
Cc1ccc2[nH]c(-c3cccc(F)c3)cc(=O)c2c1,-2.1%,-13%,-10%,-2&-1
Cc1ccc(NC(=O)C(C)NC(=O)OCc2ccccc2)cc1C (stereo unspecified),-1.8%,5%,-1%,-5
Cn1nc(OC(=O)Nc2ccc(Cl)cc2)cc1C(F)(F)F,x,x,-27%,3
Cc1[nH]c2ccc(C(=O)OCC(=O)NC3(C#N)CCCCC3)cc2c1C,-5.6%,4%,x,x
CC(C)=NNc1nc2c(c(=O)[nH]c(=O)n2C)n1CCc1ccccc1,-0.9%,-8%,-12%,-22
O=C1N(CN2CCOCC2)c2ccccc2C12OCC(CCl)O2 (stereo unspecified),2.6%,-15%,3%,x
Cc1cnc(NC(=O)c2cncc(Br)c2)s1,-2.0%,-5%,-50%,0
CCCc1ccc(-c2cc(N)n[nH]2)cc1,1.2%,-15%,-18%,1
COc1cccc(-n2c(CN3CCN(Cc4ccccc4)CC3)nc3ccc([N+](=O)[O-])cc3c2=O)c1,x,x,-9%,-4
Cc1cc(C)n(C(C)Sc2ccccc2)n1 (stereo unspecified),-0.5%,-1%,x,x
CCOC(=O)C1NN=C(C(=O)c2ccccc2)C1c1ccccc1 (stereo unspecified),0.0%,3%,-2%,-9
CCOc1ccc(C(=O)O/N=C(\N)c2ccccn2)cc1OCC,4.2%,-2%,-29%,x
